Rango complex inh: qHTS Assay for Inhibitors of Rango (Ran-regulated importin-beta cargo) - Importin beta complex formation; Importin subunit beta-1 (Homo sapiens), Q14974; Rango CFP/YFP FRET sensor + importin beta, 45 min; Potency, µM (top dose mostly 92.2 µM), without a hit: top-dose inhibition of complex formation; 340,000 compounds, 0.031% hits; AID 540263, 2011; active = rising FRET ratio curve, often small or poorly fitted; inconclusive = mostly compound fluorescence or quenching in the first reads; inactive = flat curves in all reads;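 also: potency is read from the fitted curve at half-maximal effect; 0% = DMSO wells and 100% = buffer wells lacking importin beta; nearly all actives have a fitted effect of over 15% in size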
Target sequence (Q14974 whole entry, looked up): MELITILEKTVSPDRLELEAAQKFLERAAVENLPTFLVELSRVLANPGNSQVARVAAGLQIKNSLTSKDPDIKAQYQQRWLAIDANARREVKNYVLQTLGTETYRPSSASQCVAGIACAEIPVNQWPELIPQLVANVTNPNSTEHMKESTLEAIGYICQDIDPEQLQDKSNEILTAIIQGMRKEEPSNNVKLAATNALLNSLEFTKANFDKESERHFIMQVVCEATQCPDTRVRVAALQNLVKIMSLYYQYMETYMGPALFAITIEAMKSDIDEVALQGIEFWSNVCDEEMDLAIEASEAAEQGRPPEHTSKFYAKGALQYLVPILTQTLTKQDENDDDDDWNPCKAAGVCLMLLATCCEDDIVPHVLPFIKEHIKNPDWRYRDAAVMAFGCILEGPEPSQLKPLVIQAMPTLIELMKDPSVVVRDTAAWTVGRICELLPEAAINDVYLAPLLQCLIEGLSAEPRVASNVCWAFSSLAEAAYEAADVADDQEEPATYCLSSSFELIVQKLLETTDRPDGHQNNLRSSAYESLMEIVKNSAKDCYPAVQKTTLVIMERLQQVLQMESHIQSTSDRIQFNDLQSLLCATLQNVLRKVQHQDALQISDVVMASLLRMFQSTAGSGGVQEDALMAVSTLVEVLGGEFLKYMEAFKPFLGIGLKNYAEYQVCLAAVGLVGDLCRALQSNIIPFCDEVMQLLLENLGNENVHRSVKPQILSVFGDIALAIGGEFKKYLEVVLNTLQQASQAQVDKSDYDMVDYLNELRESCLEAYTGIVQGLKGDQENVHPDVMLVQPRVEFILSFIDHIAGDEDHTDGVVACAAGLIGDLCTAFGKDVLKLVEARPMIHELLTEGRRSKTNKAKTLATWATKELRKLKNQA
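Inhibition scored from the CFP 486 nm/YFP 530 nm FRET ratio 45 min after adding 0.125 microM importin beta to 50 nM Rango biosensor preincubated 5 min with compound (room temperature, PBS with DTT, Tween-20, BSA). No-importin wells as positive control.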
miR-21 FLuc: qHTS Assay for Modulators of miRNAs and/orActivators of miR-21 | HeLa miR-21 FLuc reporter, luciferase, 48 h | Potency, µM (titrated, usually from 38.3 µM), for inactives: top-dose reporter change, positive = more light | 340,000 tested, under 10 active | AID 2288, 2010; active = well fitted rising curve with a large enough effect; inconclusive = small, poorly fitted or top-dose-only effect; inactive = no such curve, though single readings can be large or run the other way;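 also: % of control where 0% means no effect; miR-21 action dims this reporter so a rising signal means less miR-21 action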
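HeLa miR-21-FLuc reporter line, endogenous miR-21; 2000 cells/well in DMEM/10% FBS; compound titration up to ~40uM final, 48 h, 37 degree Celsius; luciferase detection reagent, 15 min lysis, CCD luminescence.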
Rango dissoc inh: qHTS Assay for Inhibitors of RanGTP induced Rango (Ran-regulated importin-beta cargo) - Importin beta complex dissociation; Snurportin-1 (Homo sapiens) + GTP-binding nuclear protein Ran (Homo sapiens) + Importin …; Potency, µM (highest dose often 46.1 µM), without a hit: at the highest dose activity change, negative = inhibition; Biochemical FRET Rango-importin beta, RanGTP-induced dissociation; 340,000 compounds, 0.071% hits; active means falling FRET ratio curve, often poorly fitted, with flat reads before Ran was added; inconclusive means other falling curves, or compound fluorescence or quenching; inactive means flat or rising ratio curve;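 also: potency is read from the fitted curve at half-maximal effect; % of control where 0% means no effect; nearly all actives have a fitted effect of over 45% in size; -100% = wells without RanGTP and RCC1; the record marks most hits as doubtful in a second field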
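Rango/importin beta premix (0.1/0.25 uM final), PBS + 1 mM DTT + 0.02% Tween-20 + 0.1% BSA; cpd 5 min RT; FRET pre-read; + RanGTP-RCC1 (0.6 uM Ran, 2 mM GTP, 0.2 uM RCC1); 45 min RT; FRET post-read, ex 430, em 486/530 nm.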
GLA inh pH 4.5: qHTS Assay for Inhibitors of Human alpha-Galactosidase at pH 4.5 | activity change, negative = inhibition, % at 105 µM | purified enzyme, 4-MU-alpha-Gal fluorescence, pH 4.5 | AID 1467, 2008 | Alpha-galactosidase A (Homo sapiens), P06280 | 230,000 tested, under 10 active; inconclusive = small, poorly fitted or top-dose-only inhibition, or a rising curve; inactive = flat fitted curve, though single readings scatter; no compound was filed as active;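 also: 0% = full activity with enzyme and -100% = basal without enzyme; dose as in the result columns while the protocol names 77 µM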
* = called active by the depositor; u = inconclusive; x = no result given; & = joins results of further samples. A portion of the library. The share of hits here may be higher or lower than overall.

SMILES	Rango complex inh	miR-21 FLuc	Rango dissoc inh	GLA inh pH 4.5
CC1CC(C)CN(C(=O)c2ccncc2)C1 (configuration not stated)	-0.7%	-0.3%	0.7%	0.4
CC1CCCC(NC(=O)COC(=O)c2ccc3ncsc3c2)C1C (configuration not stated)	u	x	26.2%	x
O=C(O)c1cccnc1SCc1cn2cc(Cl)ccc2n1	2.2%	1.3%	5.7%	-8.5
CN(C)C=Nc1c(C(=O)c2ccccc2)sc2nccc(N(C)C)c12	u	-3.7%	u	2.2
CCCCNC(=O)C1CCCN1C(=O)NC1CCCCC1 (configuration not stated)	2.3%	-9.4%	8.2%	-10.1
CCOC(=O)C1(C(=O)OCC)C(C(=O)c2ccccc2)C1c1ccccc1 (configuration not stated)	2.0%	x	-11.2%	x
Cc1cc(C(=O)Nc2ccc(F)cc2C)n(-c2ccccc2)n1	-1.0%	-13.2%	5.2%	-1.0
COc1ccc(N=C/C=C2\C=C(c3ccccc3)OC(C)(C)O2)cc1	-1.9%	1.1%	u	-18.8
CCOC(=O)c1c(NC(C)=O)sc2c(O)cccc12	-2.9%	-5.4%	-6.5%	8.7
COc1ccccc1CNC(=O)COC(=O)/C=C/c1cccs1	2.8%	-0.8%	-16.1%	6.6
CN(C)CC(O)COc1cccc(OCC(O)CN(C)C)c1 (configuration not stated)	-0.1%	1.0%	-9.9%	9.6
COc1cc(-c2noc(C)c2C#CC2(N)CCCCC2)cc(OC)c1OC	1.6%	-0.1%	1.6%	x
CCOC(=O)C(C)(C)N(Cc1cccc(C)c1)S(=O)(=O)c1ccc(Cl)c([N+](=O)[O-])c1	-1.9%	15.6%	-12.9%	-4.9
CCCCC(=O)Nc1cc(OCC)c(NC(=O)c2ccccc2[N+](=O)[O-])cc1OCC	-1.6%	-0.1%	0.2%	-6.3
CCCCN(C(=O)CN1C(=O)C2CCCCC2C1=O)c1c(N)n(CCC)c(=O)[nH]c1=O (configuration not stated)	-0.8%	x	-9.1%	x
O=C(Cc1ccccc1)N1CCC(c2nc3ccccc3[nH]2)CC1	-1.8%	-5.6%	-1.9%	3.2
O=C1c2ccccc2C(=O)N1CCCCN(C(=O)c1ccc([N+](=O)[O-])cc1)c1ccc(Cl)cc1	2.5%	6.8%	-0.1%	-6.6
Cc1cc(OCC(=O)OCC(=O)Nc2cccnc2Cl)ccc1Cl	1.1%	x	10.2%	x
CCOc1ccc2nc(NC(=O)CSc3cn[nH]n3)sc2c1	-0.9%	-33.5%	-10.2%	x
COc1ccc(NC(=O)CC2C(=O)N(C)C(=S)N2Cc2ccncc2)cc1 (configuration not stated)	-0.5%	-1.1%	0.9%	-0.1
Cc1cccc(NC(=O)c2ccc(CN3CCN(Cc4ccccc4)CC3)cc2)c1	-0.3%	1.9%	-7.9%	-5.1
COc1cc(/C=N/N=C2/C(=O)Nc3ccccc32)cc(OC)c1O	2.6%	-15.7%	11.3%	-5.9
c1ccc(Cn2nnnc2C(c2ccccc2)N2CCN(c3nc4ccccc4s3)CC2)cc1 (configuration not stated)	-0.4%	-5.6%	-0.7%	-2.4
COc1ccc(N2CCN(Cc3cc(=O)oc4c3ccc3ccccc34)CC2)cc1	x	-1.1%	x	-3.4
Cc1oc(-c2cccs2)nc1CN1CCC(c2ccccc2)CC1	3.5%	-3.8%	1.6%	0.1
COc1ccccc1Nc1ncnc2c1c(C)c(C)n2CCCN(C)C	-0.9%	-6.2%	2.2%	x
O=C(Oc1cccc2c(=O)[nH]ccc12)c1ccccc1	-2.5%	-3.9%	1.2%	11.5
CCOc1ccc(NC(=O)CN(C)C(=O)c2cc(S(=O)(=O)N3CCCCC3)ccc2Cl)cc1OCC	4.6%	x	-9.3%	x
O=S(=O)(c1ccc(NC(=S)N/N=C/c2cccc(Oc3ccccc3)c2)cc1)N1CCOCC1	-4.0%	-2.2%	6.3%	-8.9
CSc1nnc(NC(=O)c2ccc(C)c(S(=O)(=O)N3CCOCC3)c2)s1	4.4%	-11.5%	23.1%	-5.8
Cn1cc(C(=O)C(=O)N2CCOCC2)c2ccccc21	3.9%	0.6%	-13.3%	x
CC1=NN(C(N)=S)C(=O)C1N=Nc1cccc2ccccc12 (configuration not stated)	x	-26.0%	x	-0.2
O=C(Nc1nnc(CC(c2ccccc2)c2ccccc2)s1)c1ccco1	-3.0%	-1.4%	7.3%	1.2
O=C(CN1CCCCCCC1)Nc1cccc(Cl)c1Cl	0.6%	-3.9%	0.9%	6.9
COc1cc2nc(NC(=O)c3ccc(Cl)cc3)sc(=O)c2cc1OC	-2.3%	2.7%	0.5%	x
COc1ccc(/C=C/C(=O)Nc2ccc(-n3nncc3-c3ccccc3)cc2)cc1OC	u	5.8%	-20.6%	-1.4
Cc1ccc(NC(=O)c2ccc(C(=O)c3ccccc3)cc2)nc1	-3.7%	x	0.9%	x
CCCCCCCCNS(=O)(=O)CCNCc1ccco1	u	x	-22.3%	x
c1cc2c(cc1C1=Nn3c(nnc3C3CCCCC3)SC1)OCO2	-0.2%	1.0%	-3.6%	-4.3
CCOC(=O)C1=C(N)Oc2cc(O)ccc2C1c1ccc(C)cc1 (configuration not stated)	u	3.1%	u	x
NC(=O)COC(=O)c1cccc(S(=O)(=O)N2CCCCC2)c1	0.8%	-6.3%	12.1%	5.8
C/C(N)=C(/C#N)C(=O)COC(=O)C1CCC(C(C)(C)C)CC1 (configuration not stated)	-6.7%	5.0%	u	-1.5
O=C(NCCCN1CCOCC1)c1ccccc1N1C(=O)[C@@H]2Cc3c([nH]c4ccccc34)C(c3cccc(Cl)c3)N2C1=O (some centres not stated)	-0.2%	15.2%	-6.7%	x
Cc1n[nH]c(C)c1S(=O)(=O)N1CCCC(C(=O)Nc2ccc(Br)cc2)C1 (configuration not stated)	5.2%	16.6%&24.1%	0.6%	x
O=C(c1ccccc1Cc1ccccc1)N1CCN(S(=O)(=O)c2ccccc2Br)CC1	-1.4%	x	18.6%	x
O=C(COc1ccc(C(=O)NCC2CCCO2)cc1)Nc1cccc(C(F)(F)F)c1 (configuration not stated)	4.5%	x	1.7%	x
O=C(NC1CC1)c1ccc(CN(c2ccccc2)S(=O)(=O)c2ccccc2)cc1	2.5%	0.4%	12.1%	-5.3
Fc1cccc(/C=N/Nc2cc(N3CCOCC3)ncn2)c1	0.0%	-48.1%	9.2%	x
COc1ccc(CN2CC(C(=O)NCc3ccccn3)CC2=O)cc1 (configuration not stated)	0.5%	-1.8%	4.8%	0.0
Cc1cc(C)cc(OCC(=O)OCC(=O)NCc2ccco2)c1	-0.3%	-0.6%	-9.7%	4.9
CCOC(=O)c1ccc(NC(=O)CC2C(=O)N(c3ccc(F)cc3)C(=O)N2CCCOC)cc1 (configuration not stated)	2.5%	0.1%	4.2%	-7.3
Cc1noc2ncnc(Sc3c(Cl)cccc3Cl)c12	5.2%	27.8%	14.8%	-2.0
CC(C)Oc1cccc(C(=O)NC(=S)Nc2ccc3c4c(cccc24)CC3)c1	3.6%	-5.5%	0.3%	4.6
COc1ccccc1CN(C)C(=O)CN1C(=O)c2ccccc2C1=O	3.7%	4.3%	-10.2%	x
CN(C)C(=S)Nc1ccc([N+](=O)[O-])cc1	4.6%	-3.6%	0.4%	1.4
Cc1cccc(C(=O)NN2S(=O)(=O)c3ccccc3S2(=O)=O)c1	u	5.9%	-4.5%	-3.7
CC(C)c1nnc(SCC(=O)Nc2ccc3c(c2)OCO3)n1C	0.5%	-4.8%	-9.2%	4.6
O=C(Cn1cnc2ccccc2c1=O)c1ccc2ccccc2c1	0.5%	-68.3%	-28.2%	11.4
CCOC(=O)c1cc2[nH]c3ccccc3c2[n+](-c2ccc([N+](=O)[O-])cc2)c1N	u	10.1%	-15.4%	-12.4
COc1ccc(C(=O)N/C(=C\c2cn(C)c3ccccc23)C(=O)N2CCN(C)CC2)cc1OC	1.7%	-2.0%	-1.9%	x

(more compounds)
SMILES	Rango complex inh	miR-21 FLuc	Rango dissoc inh	GLA inh pH 4.5
CCN(Cc1cc2ccc(C)cc2[nH]c1=O)C(=O)c1cccnc1	x	-10.1%	x	2.7
Cc1ccc(-c2nn(C)c(=O)c3ccccc23)cc1CNC(=O)c1ccccc1	-4.8%	6.1%	-5.8%	-23.6
Cc1nc(-c2noc(-c3cccc(Cl)c3)n2)c(C(F)(F)F)o1	0.5%	-2.9%	-12.6%	-4.8
Cc1ccc(S(=O)(=O)N(C)C)cc1NC(=O)COC(=O)Cc1ccsc1	-0.9%	x	8.8%	x
COc1ccc(C(C#N)N2N=C(c3ccccc3)CC2c2ccccc2)cc1OC (configuration not stated)	0.9%	-78.4%	23.1%	-13.9
Cc1[nH]c(=O)[nH]c(=O)c1S(=O)(=O)NCCc1ccc(S(N)(=O)=O)cc1	5.2%	-7.4%	-6.2%	-2.3
O=C(Nc1ccc(CSc2ccccc2)cc1)c1ccc(CN2CCOCC2)cc1	1.5%	17.9%	1.6%	-4.9
CCCC(C1=C(O)CC(C)(C)CC1=O)C1C(=O)CC(C)(C)CC1=O (configuration not stated)	-2.1%	-3.1%	4.2%	-2.8
COc1cc(OC)c(/C=N/NC(=O)c2ccncc2)c(OC)c1	-3.6%	-0.4%	0.1%	x
CCSc1nnc(NC(=O)c2cccc(S(=O)(=O)N(C)c3ccccc3)c2)s1	2.8%	-0.9%	23.8%	2.3
CCCn1nnnc1NC(=O)c1ccc2ccccc2c1	0.6%	16.9%	37.5%	-2.5
COC(=O)c1ccc2c(c1)N(C)C(=O)CS2	-5.0%	-0.1%	-6.9%	-3.0
CCc1c(C)nc(SCc2ccccn2)[nH]c1=O	2.1%	-4.1%	u	-1.7
CCOc1ccc2[nH]c(=O)c(CN(Cc3cccs3)Cc3nnnn3C(C)(C)CC)cc2c1	0.3%	18.5%	6.6%	-5.3
CC1(C)CC(O)C(C)(C)N1O (configuration not stated)	-3.9%	0.8%	10.3%	-11.9
COc1ccc(NC(=O)C2CCC(N3C(=O)C4C5C=CC(C5)C4C3=O)CC2)cc1 (configuration not stated)	-1.3%	-3.0%	-12.0%	0.0
COC(=O)/C=C1/S/C(=N/NC(=O)c2ccc(OC)cc2)NC1=O	7.8%	-1.2%	-8.4%	x
O=C(Nc1ccc(Nc2ccccc2)cc1)c1c(F)c(F)c(F)c(F)c1F	4.9%	6.5%	-12.2%	x
N#C/C(=C/c1ccc(N2CCCCC2)o1)C(=O)Nc1ccc(Cl)cc1	u	-48.9%	u	4.7
CC(=O)NNC(=O)c1csc(Cc2c(Cl)sc3ccc(Cl)cc23)n1	8.5%	26.2%	0.3%	5.5
O=c1cc(CSc2ccc(Cl)cc2)nc2nc[nH]n12	-1.2%	1.2%	13.7%	0.7
Cc1cccc(C)c1NC(=O)NC1(C(=O)N2CCCC2)CCCCC1	-1.8%	-0.1%	-0.3%	x
COCCN(C(=O)CCC(=O)Nc1nccs1)C(C(=O)NC(C)(C)C)c1ccc(Cl)cc1 (configuration not stated)	-1.2%	2.8%	-2.7%	-11.9
CCCCSc1nc2c(cnn2-c2ccc(Cl)cc2)c(=O)[nH]1	-0.5%	-7.7%	-12.1%	7.3

Screens as filed in PubChem BioAssay.
